# High-throughput results as filed in PubChem BioAssay.
# D2 agonist: activates the human D2 dopamine receptor. P14416. DiscoveRx PathHunter D2 beta-arrestin, luminescence, 90 min; 100% = 57 uM dopamine signal. activation, % (no concentration beside the values). hit rate 0.084% among 360,000. AID 624465; in the data active = activation above about 40%; inconclusive = about 15% to 40%; inactive = below about 15%; note: compound concentration not given in the record; the text of the record calls up to 30% inactive
# Target sequence (P14416 whole entry, looked up): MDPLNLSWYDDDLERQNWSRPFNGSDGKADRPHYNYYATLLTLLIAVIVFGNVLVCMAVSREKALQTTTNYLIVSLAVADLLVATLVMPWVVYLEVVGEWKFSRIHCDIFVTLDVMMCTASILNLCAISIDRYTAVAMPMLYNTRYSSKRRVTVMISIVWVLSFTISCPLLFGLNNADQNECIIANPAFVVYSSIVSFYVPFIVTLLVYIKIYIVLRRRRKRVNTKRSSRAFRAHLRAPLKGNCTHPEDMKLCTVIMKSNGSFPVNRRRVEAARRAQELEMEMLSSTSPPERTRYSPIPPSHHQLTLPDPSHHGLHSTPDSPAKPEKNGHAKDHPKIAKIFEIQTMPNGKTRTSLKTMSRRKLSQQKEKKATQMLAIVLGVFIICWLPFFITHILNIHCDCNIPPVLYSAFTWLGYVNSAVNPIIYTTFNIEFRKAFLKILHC
#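 Agonist mode: compounds alone added to overnight-plated D2 PathHunter cells for 90 min at 37 C, with 57 uM final dopamine (EC100) defining full response. Beta-arrestin recruitment detected by chemiluminescent reagent, read after 1 h at ambient temperature.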
# gsp agonist: activates gsp, the McCune-Albright syndrome mutation | gsp mutant cells, cAMP HTRF, 30 min; control for the full effect not named in the record | Potency, µM (series often up to 76.9 µM), inactives show at the top dose activation (cAMP increase), usual class: activators | hit rate 0.13% among 340,000; active = well fitted activation curve with a large enough effect; inconclusive = small, poorly fitted or top-dose-only effect, or another doubt; inactive = no such curve, though single readings can be large or run the other way; cell line not stated here;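 note: phosphodiesterase inhibitor Ro 20-1724 added with compounds to block cAMP breakdown; potency is the fitted concentration of half-maximal effect; nearly all actives have a fitted effect of over 60% in size; about a fifth of the inactives were tested at one dose only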
#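 Cells in DMEM/10% FBS with G418 were pretreated with compounds in DMSO plus […] (300 uM stock) for 30 min at 37C. cAMP was measured by HTRF (cAMP-d2 plus anti-cAMP antibody-K) after 30 min at room temperature.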
# Menin-MLL FL inh: menin-MLL binding inhibition, fluorescein peptide. 290,000 tested, under 10 active. Fluorescence polarization, fluorescein-MLL peptide displacement from menin. FP activity change, % at 61.4 µM. AID 1766; inconclusive = falling polarisation curve, or a change in total fluorescence; inactive = total fluorescence flat and polarisation flat or rising; no compound was filed as active; the % refers to the polarisation; negative = inhibition;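 note: % of control where 0% means no effect; inhibitors lower the polarisation; unlabelled MLL peptide was the positive control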
# ClpP mod: qHTS Assay for Activators of ClpP; ATP-dependent Clp protease proteolytic subunit (Bacillus subtilis (strain 168)), P80244; purified B. subtilis ClpP, FRET peptide cleavage, 20 min; Potency, µM (series often up to 57.5 µM), without a hit: top-dose activity change, negative = active; hit rate 1.9% among 340,000; AID 651965, 2013; active = well fitted falling curve with a large enough effect; inconclusive = small, poorly fitted or top-dose-only effect; inactive = no such curve, though single readings can be large or run the other way; note: potency is the fitted concentration of half-maximal effect; the source files actives as falling curves though it sought activators and does not explain the sign; nearly all actives have a fitted effect of over 65% in size; many hits overshoot -100%
# Target sequence (P80244 whole entry, looked up): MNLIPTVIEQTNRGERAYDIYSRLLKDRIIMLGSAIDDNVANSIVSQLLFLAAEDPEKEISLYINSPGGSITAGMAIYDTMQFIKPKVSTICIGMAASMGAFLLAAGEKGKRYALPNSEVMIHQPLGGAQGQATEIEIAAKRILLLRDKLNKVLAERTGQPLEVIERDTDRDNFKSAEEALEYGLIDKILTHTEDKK
#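 Purified B. subtilis ClpP, 10 microg/mL final in Tris/HCl pH8 with KCl, BSA, glycerol and Tween-20, cleaved an Abz/nitrotyrosine-quenched decapeptide. Fluorescence (ex 320, em 430) was read at 0 and 20 min at room temperature. Delta was normalized to 5.8 microM ADEP and DMSO/no-enzyme controls.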
# gsp antagonist: antagonists of gsp mutant (McCune-Albright syndrome); gsp-mutant cells, cAMP HTRF, 30 min; control for the full effect not named in the record; Potency, µM (doses to about 76.9 µM), inactives show at the top dose activity change, negative = inhibition, most hits filed as inhibitors; hit rate 0.4% among 340,000; active = falling curve of any shape with a large fitted effect; inconclusive = falling curve, mostly with a smaller effect; inactive = flat or rising curve; cell line not stated here;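 note: intracellular cAMP measured with PDE inhibitor Ro 20-1724 present during compound exposure; potency is the fitted concentration of half-maximal effect; % is set by controls: 0 for no effect and ±100 for the full control effect; nearly all actives have a fitted effect of over 65% in size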
#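 HTRF cAMP measurement after 30 min RT detection following 30 min, 37C compound treatment alongside […] (added as 300 uM solution) in G418-selected cells seeded at 2000/well and grown 16–24 h.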
# Sfp PPTase inh: Sfp phosphopantetheinyl transferase inhibition. Q9F4F7. Biochemical Sfp PPTase activity, qHTS. Potency, µM, for the others: max response, negative = inhibition, most hits filed as inhibitors. hit rate 3.5% among 310,000. AID 1490; active = well fitted inhibition curve with a large enough effect; inconclusive = small, poorly fitted or top-dose-only effect, or another doubt; inactive = no such curve, though single readings can be large or run the other way;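 note: the enzyme is Sfp with the accession as filed and its product quenches rhodamine fluorescence; potency is the fitted concentration of half-maximal effect; 0% = enzyme reaction without inhibitor and -100% = no enzyme wells; top concentration of the series not given in the record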
#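 Reaction rates are the 30-min fluorescence difference (ex 525, em 598 nm) in wells containing 15 nM Sfp, 5 uM rhodamine-CoA and 12.5 uM BHQ-2-YbbR at pH 7.6 with 10 mM MgCl2.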
# PINK1 modulator: modulators of PINK1 expression; PINK1 immunofluorescence, high-content cytometry, 24 h; Potency, µM (doses to about 76.6 µM), for the others: at the top dose activation (PINK1 increase), most hits filed as activators; hit rate 0.2% among 410,000; AID 624263; active = well fitted activation curve with a large enough effect; inconclusive = small, poorly fitted or top-dose-only effect; inactive = flat fitted curve, though single readings scatter; cell line not stated here;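 note: potency is the fitted concentration of half-maximal effect; % of control where 0% means no effect; nearly all actives have a fitted effect of over 65% in size; a mitochondrial uncoupler was the plate control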
#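 Fluorescence from anti-PINK1 antibody, together with nuclear and cell stains, was scanned on a laser-scanning cytometer. Before staining, stable-line cells were incubated 24 hours with compounds at 5 concentrations; primary antibody 12 h at 10 degrees C.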
# * marks the source's active call; other numbers are inactive results; ? = inconclusive; · = no result given; & = joins results of further samples; [ ] = remark or other dose.
smiles,D2 agonist,gsp agonist,Menin-MLL FL inh,ClpP mod,gsp antagonist,Sfp PPTase inh,PINK1 modulator
CCNc1nc(NCC)nc(SCCOC(=O)Nc2ccccc2)n1,-3.2,-45%[inhibitor],17,1.2%,-12%,22%,-2.6%
C=CCN1C(=O)N(CC=C)c2cccc3cccc1c23,3.8,?,-0.9,-1.0%,-20%,0%,-1.6%
CCOC(=O)c1ccccc1NC(=O)c1cc2sccc2n1C,-3.5,0%,-0.3,28µM*,5%,7%,12%[38.3 µM]
Cc1ccc(-c2nn(-c3cccc(F)c3)cc2CNCc2cccnc2)o1,0.2,-1%,-2.5,3.8%,-14%,-3%,1.1%
Cn1c(CC(=O)NNC(=O)c2cncc(Br)c2)nc2ccccc21,9.0,-4%,·,1.0%,11%,·,-0.6%
Cc1cccc(C(=O)NC2CCN(C(=O)N3CCOCC3)CC2)c1,0.1,1%,0.9,0.0%,10%,32%[activator],-3.4%
CC(C)CC1C(C#N)=C(N)Oc2n[nH]c(-c3ccccc3)c21 (centres undefined),-4.8,-1%[15.4 µM],1.7,1.6%,10%,11%,1.2%
CCCCC[C@@H]1C=C(C(=O)O)[C@H](c2ccc(C)cc2)N1S(=O)(=O)c1ccc(C)cc1,0.5,·,·,1.0%,-18%,·,0.3%
CCN(CC)c1ccc(CN2CCC(C(=O)NCc3ccc(C)cc3)CC2)cc1,-3.9,26%,2.2,-3.8%,11%,2%,2.6%
O=C(c1cccc2ccccc12)C1CCCN(C(=O)CCc2cnccn2)C1 (centres undefined),3.0,-6%,-1.7,·,9%,26%,0.9%
O=C1C2CCCN2C(c2ccccc2F)N1c1ccc(F)cc1 (centres undefined),-2.2,11%,0.0,-1.6%,7%,-8%,-0.3%
O=C(O)CSc1nnc(-c2ccc(Cl)cc2Cl)n1Cc1ccccc1,3.6,-38%,-1.9,-0.2%,-1%,21%,0.6%
O=C(CCc1nnc(-c2ccc3c(c2)OCO3)o1)NCCc1ccccc1F,-1.2,-2%,-1.5,-1.3%,3%,17%,-2.2%
CC(Cc1ccccc1)C(=O)Nc1ccccc1 (centres undefined),-2.3,0%,0.5&0.0,-1.6%,7%,4%&16%,-1.6%
O=C(Nc1nccs1)C(Br)C(Br)c1ccccc1 (centres undefined),0.2,-1%[15.4 µM],·,·,-7%,50µM*,9.4%

# (more compounds)
smiles,D2 agonist,gsp agonist,Menin-MLL FL inh,ClpP mod,gsp antagonist,Sfp PPTase inh,PINK1 modulator
Cn1cc(C(c2ccccc2OCC(=O)O)c2cn(C)c3ccccc23)c2ccccc21,0.5,0%[15.4 µM],-1.0,0.1%,-9%,-3%,-1.0%
CCn1c(SCC(=O)N(C(C)C)C(C)C)nnc1-c1cc2ccccc2cc1O,-0.2,17%,3.3,-1.3%,-21%,-17%,-3.5%
CC1(C)CC(=O)C=C(C(=O)N2CCCC(C(=O)c3cc(F)ccc3F)C2)O1 (centres undefined),7.3,5%,·,-1.9%,·,·,-0.1%
COc1ccc(OCCNC(=O)CSc2ccc(C(F)(F)F)cc2[N+](=O)[O-])cc1,-0.9,-8%[15.4 µM],1.9,35%,1%,0%,7.2%
COc1ccc(-c2nc(S(=O)(=O)c3ccccc3)c(NCCCN3CCOCC3)o2)cc1,-0.4,-28%,·,2.2%,-9%,·,0.5%
Cc1c(CCOC(=O)c2cc([N+](=O)[O-])cc([N+](=O)[O-])c2)sc[n+]1CC(=O)c1ccc(Br)cc1,6.2,5%[15.4 µM],-0.6,·,1%,?,-0.4%
COc1ccc(OCC(CO)N2CCN(c3ccccc3)CC2)cc1 (centres undefined),?,25%,·,·,5%,·,4.1%
CC(=O)c1cccc(NC(=O)CSc2nnc(-c3cccnc3)o2)c1,-0.7,?,1.8,-2.2%,-3%,26%,0.3%
COC(=O)c1ccc(Oc2nc(N3CCCCC3)nc(N3CCOCC3)n2)cc1,0.6,4%,3.4,0.0%,-3%,-16%,·
C[C@H](CO)N1C[C@H](C)[C@@H](CN(C)S(=O)(=O)c2cn(C)cn2)Oc2c(NS(=O)(=O)c3cn(C)cn3)cccc2C1=O,-1.2,·,·,-2.3%,5%,·,1.0%
COCCNC(=S)Nc1cc(OC)c(OC)cc1C#N,-5.0,?,-2.0,-2.3%,-3%,79µM*,0.2%
COc1ccccc1NC(=O)CCS(=O)(=O)c1ccccc1,-0.9,-15%,-0.6,·,1%,15%,3.1%
O=C(CCN1C(=O)c2ccccc2C1=O)N1CCN(C(=O)c2ccccc2)CC1,-2.6,15%,0.3,-0.7%,15%,5%,0.8%
C/C(COc1ccccc1)=N\NC(=O)c1nnn(-c2nonc2N)c1CSc1ccccc1,14,2%,-1.1,-0.6%,?,8%,1.2%
COc1ccc(C(=O)Cn2c(NCCO)nc3ccccc32)cc1,-0.4,-2%,-1.2,·,0%,3%,-1.5%

# (further entries)
smiles,D2 agonist,gsp agonist,Menin-MLL FL inh,ClpP mod,gsp antagonist,Sfp PPTase inh,PINK1 modulator
CC12CN3CCN(CC(C3)/C1=N/NC(=O)Nc1ccccc1)C2,1.9,-5%[15.4 µM],1.1,·,11%,-9%,-0.2%
CC1(c2nc3ccccc3[nH]2)CCC(=O)N1Cc1ccccn1 (centres undefined),-4.0,·,·,-1.4%,·,·,1.2%
COc1ccc(C2CC(=O)C=C(O)C2)cc1 (centres undefined),-1.2,0%,0.8,-7.7%,-6%,-5%,2.4%
CCOC(=O)C1CCCN(C(=O)c2cccc(S(=O)(=O)N3CCOCC3)c2)C1 (centres undefined),-3.8,31%,-0.7,·,7%,20%,-1.4%
Cc1nc2ccccc2c(=O)n1Nc1cccc(Cl)c1,5.8,38%[15.4 µM],-9.0,-1.6%,-16%,12%,0.7%
COc1ccc(C(=O)NC(CCSC)C(=O)NCc2nnc3ccccn23)cc1 (centres undefined),-7.1,49%[15.4 µM],·,·,18%,·,-1.2%
O=C(Nc1cc(Cl)ccc1-n1cncn1)c1cn2ccccc2n1,7.7,-31%[15.4 µM],·,·,10%,·,-2.9%
Cc1cc(OC(C)C(=O)Nc2cccnc2)ccc1Cl (centres undefined),-3.2,-3%,0.3,·,11%,12%,-1.1%
Cn1c(=O)c2c(nc(NCc3ccccc3)n2CC(=O)NCc2ccccc2)n(C)c1=O,-1.4,6%,6.7,4.0%,6%,14%,6.0%
COc1cc(C2NC(=O)NC(C)=C2C(C)=O)cc(OC)c1OC (centres undefined),-2.4,3%[15.4 µM],3.0,?,2%,-19%,0.7%
CCCSCCCNC(=O)c1ccc(NC(=O)C2=CSCCO2)cc1,-0.2,0%,·,-1.0%,?,17%,-0.1%
Cc1ccccc1NCC(=O)N/N=C/C(Br)=C/c1ccccc1,-0.1,-13%,-1.7,2.6%,1%,-11%,?
CN(C)C1(CNC(=O)C2CCC(=O)N(Cc3ccc(Cl)cc3)C2)CCCCC1 (centres undefined),-1.3,-20%,·,-1.8%,8%,13%,0.8%
CC(=O)Nc1ccc(NC(=O)C(C)OC(=O)CCCOc2ccc(Cl)cc2C)cc1 (centres undefined),0.8,4%[15.4 µM],·,·,-6%,·,2.2%
N#Cc1cccc(NC(=O)c2cc(C3CCCCN3C(=O)CCCc3ccccc3)on2)c1 (centres undefined),1.4,·,·,-3.6%,·,·,2.1%

# Other compounds:
smiles,D2 agonist,gsp agonist,Menin-MLL FL inh,ClpP mod,gsp antagonist,Sfp PPTase inh,PINK1 modulator
O=C(O)[C@]1(S(=O)(=O)c2ccccc2)C[C@@H]2ON=C(c3cccc(Br)c3)[C@@H]2C1,-3.6,-5%,-6.9,1.9%,2%,-2%,-0.5%
O=[N+]([O-])C(=C1Nc2ccccc2N1)C(Cl)=C(Cl)Cl,1.0,-3%,-0.7,-3.6%,-11%,89µM*,2.4%
O=C(OCC#CCSc1nc2ccccc2s1)c1ccco1,6.3,24%,4.4,-0.3%,-17%,?,-3.1%[38.3 µM]
COc1cccc(CC2(CO)CCCN(Cc3cc4ccccc4[nH]3)C2)c1 (centres undefined),7.2,2%,0.5,·,4%,5%,-0.5%
COc1ccc(NC(=S)N2CCc3ccccc32)cc1OC,-5.8,2%,·,1.3%,-12%,6%,0.1%
COc1cccc(C(=O)NC2CC3CCCC(C2)N3Cc2ccc(C)cc2)c1 (centres undefined),-2.3,-60%,-2.9,-1.3%,3%,10%,-0.4%
OC(c1cc(F)cc(Cl)c1)c1ncc(-c2ccccc2C(F)(F)F)[nH]1 (centres undefined),3.2,·,·,-3.0%,·,·,5.1%
COc1ccc(C(=O)NCC(=O)OCC(=O)NC23CC4CC(CC(C4)C2)C3)cc1,-0.8,-29%,·,-0.2%,-25%,·,-0.1%
Cc1cc(O)c(S(=O)(=O)c2ccccc2)c(C)c1NS(=O)(=O)c1ccccc1,-3.1,21%[15.4 µM],-17,·,-16%,1%,1.4%
Cc1cccc(N(C(=O)c2csnn2)C(C(=O)NC2CCCC2)c2ccncc2)c1 (centres undefined),-1.5,3%[15.4 µM],1.4,-1.4%,-11%,-4%,-0.5%
NC(=O)CC(NC(=O)Cc1ccc(Br)cc1)c1ccc(NCC2CC2)c([N+](=O)[O-])c1 (centres undefined),-4.9,?,2.7,1.9%,10%,-20%,0.3%
COCCN(CC(=O)NCc1ccccc1)C(=O)CCC(=O)Nc1ccccn1,-1.8,7%,2.6,-2.6%,0%,8%,2.3%
COc1ccc(NC(=O)c2[nH]c(C)c(C(C)=O)c2C)cc1Cl,-1.5,-36%[inhibitor],4.1,-2.5%,-12%,-7%,0.2%
C=CCNc1nc(Nc2ccc(OC)c(OC)c2)c2sc(-c3ccccc3)cc2n1,4.1,·,·,-9.4%,·,·,1.8%
CC(C)CC(=O)Nc1nnc(-c2ccco2)s1,-2.8,-37%[inhibitor],-1.2,-25%,2%,9%,5.8%[38.3 µM]
CCOC(=O)[C@H]1[C@H]2COc3cc(OC)ccc3[C@@H]2N2C(=O)c3c(C)cc(C)cc3NC(=O)[C@@]12C,-0.1,-14%,·,-4.5%,-8%,·,-0.3%
